Compound activity from PubChem.
HNF4A DNA FP – change in binding of human HNF4 alpha to DNA; HNF4a-FITC DNA binding, fluorescence polarization, 1 h; activity change, % at 10 µM; actives 0.3% (n = 360,000); in the data active means activity change above about 30%, passing the limit was not always enough;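 further: controls were the assay level and a saturating level of protein; the project sought stronger binding though the title names inhibitors; some compounds called inactive have numbers as strong as hits; positive values seem to mean higher polarization but the record does not say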
Target sequence (P41235 whole entry, looked up): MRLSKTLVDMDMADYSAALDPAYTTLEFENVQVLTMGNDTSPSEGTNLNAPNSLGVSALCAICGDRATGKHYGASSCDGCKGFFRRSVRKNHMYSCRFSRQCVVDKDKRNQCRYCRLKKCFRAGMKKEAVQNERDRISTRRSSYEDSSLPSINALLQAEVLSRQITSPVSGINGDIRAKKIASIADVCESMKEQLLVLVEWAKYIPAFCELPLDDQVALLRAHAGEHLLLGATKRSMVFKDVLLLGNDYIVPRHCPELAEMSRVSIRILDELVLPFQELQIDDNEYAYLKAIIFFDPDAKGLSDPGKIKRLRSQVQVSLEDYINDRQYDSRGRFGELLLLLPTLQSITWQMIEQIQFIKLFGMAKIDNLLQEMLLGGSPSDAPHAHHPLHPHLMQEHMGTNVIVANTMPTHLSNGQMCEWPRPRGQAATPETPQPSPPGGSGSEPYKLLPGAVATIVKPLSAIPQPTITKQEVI
UCH37 DUB inh – blocks the human deubiquitinase UCH37; purified proteasome/UCH37, Ub-AMC cleavage fluorescence; inhibition, % (no concentration beside the values); actives 0.33% (n = 330,000); Q9Y5K5;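 active means mean of two replicates above 20%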;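 further: 0% = compound-free wells with enzyme and 100% = wells lacking proteasome; stock transfer was 100 nL into about 20 µL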
Target sequence (Q9Y5K5 whole entry, looked up): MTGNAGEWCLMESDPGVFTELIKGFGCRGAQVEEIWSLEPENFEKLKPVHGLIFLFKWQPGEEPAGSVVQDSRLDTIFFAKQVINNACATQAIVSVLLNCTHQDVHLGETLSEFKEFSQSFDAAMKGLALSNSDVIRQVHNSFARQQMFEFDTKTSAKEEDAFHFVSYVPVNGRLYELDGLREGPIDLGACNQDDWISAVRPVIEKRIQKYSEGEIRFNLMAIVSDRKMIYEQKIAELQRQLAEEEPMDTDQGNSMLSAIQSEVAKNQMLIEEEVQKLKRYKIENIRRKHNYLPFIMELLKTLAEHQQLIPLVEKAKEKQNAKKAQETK
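Test system – human UCH37 enzyme supplied as purified proteasome complex · Incubation – 30 min preincubation with enzyme, 25 min cleavage at room temperature · Detection – AMC fluorescence from Ub-AMC cleavage, excitation 355 nm, emission 460 nm · Benchmarks – no-proteasome wells (full inhibition) and compound-free wells (no inhibition)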
RanGTP-Impb inh – inhibitors of RanGTP-importin-beta interaction, primary screen, biochemical, FRET, CFP-Ran, YFP-importin-beta, homogeneous; actives 1.1% (n = 300,000); inhibition, % (concentration not given with the values); AID 2216; cell-free CFP-Ran/YFP-importin-beta FRET ratio;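 active means most replicates above 15%; inconclusive means exactly half above 15%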;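 further: 0% = DMSO wells and 100% = Ran loaded with GDP instead of GTP; wells of about 40 µL received 100 nL stock; the first replicate is given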
Ecoli growth – blocks Escherichia coli growth | OD600, 23 h; stronger effect = lower value | OD600 absorbance (concentration not given with the values) | actives 0.21% (n = 330,000) | AID 1053175;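 active means OD600 absorbance below the run mean of sample wells minus 3.6 SD, in any replicate, cut at about 0.56 in these data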;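 further: stock transfer was 300 nL into about 60 µL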
Vif TR-FRET – HIV-1 Vif–A3G interaction blockers – biochemical, TR-FRET, GST-Vif 1-94, biotin-A3G peptide, dose response retest, primary screen (AID 1117319) | TR-FRET GST-Vif / biotin-A3G peptide binding; higher % means a stronger effect; test concentration not given here; strong numbers were not always called active | inhibition, %, or IC50 in µM where a hit was titrated | actives 0.57% (n = 260,000);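 active means above the screen mean plus three standard deviations and confirmed in dose response; inconclusive means results disagree or hit not tested in dose response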;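 further: Vif residues 1-94 fused to GST binding biotinylated APOBEC3G peptide 110-148; 0% = full assay without inhibitor and 100% = GST in place of GST-Vif; retest series ran down from 100 µM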
AF4-AF9 inh – MLL-AF4/AF9 protein interaction inhibition; inhibition, % at 10 µM; actives 0.47% (n = 350,000); AlphaScreen, biotin-AF4 peptide binding to FLAG-AF9; AID 651704; P42568;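 active means every replicate reaching a set inhibition limit, whatever the replicate mean, cut at about 25% in these data; inconclusive means mean inhibition reaches that limit but some replicates miss it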;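 further: 0% = plate neutral control median and 100% = total signal loss; the record names both 10 and 1 µM as test concentration; the first replicate is given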
FGF22 binding – FGF22 (human) thermal shift binding; AID 651658; calls only at 9.99 µM; recombinant FGF22 thermal shift, SYPRO orange fluorescence; percent of sucrose octasulfate shift, DMSO zero; Q9HCT0; actives 1.5% (n = 340,000);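 active means melting point raised past a set limit in the mean and every replicate; inconclusive means no clear call; three in four hits are not shown here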
Target sequence (Q9HCT0 whole entry, looked up): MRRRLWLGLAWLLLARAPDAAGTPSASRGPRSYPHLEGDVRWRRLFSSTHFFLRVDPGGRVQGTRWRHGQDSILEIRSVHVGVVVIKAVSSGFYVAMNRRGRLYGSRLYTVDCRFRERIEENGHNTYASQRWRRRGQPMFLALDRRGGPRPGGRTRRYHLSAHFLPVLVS
* = called active by the depositor; i = inactive; ? = inconclusive; . = no result given; & = joins results of further samples. Some of the compounds tested. The share of hits here may be higher or lower than overall.

Values run as follows: Vif TR-FRET	AF4-AF9 inh	FGF22 binding	UCH37 DUB inh	HNF4A DNA FP	RanGTP-Impb inh	Ecoli growth
CSc1ccc(/C=C2/C(=N)N3N=C(CC(=O)N4CCCC4)SC3=NC2=O)cc1
    .	-0.7	i	6.4	-2.2	1.7	0.642
CCCc1cc(C(=O)Nc2sc(C)c(C)c2C(=O)OCC)no1
    0.1%	-11.4	i	-165.8	-0.1	.	0.767
CCOC(=O)c1ccccc1NC(=O)CN1C(=O)c2ccccc2S1(=O)=O
    -9.5%	.	.	-2.5	-0.2	-3.5	0.706
COCCn1c(C)cc(C(=O)COC(=O)c2ccc(Br)o2)c1C
    -5.0%	0.7	i	3.7	2.2	4.9	0.707
O=C1CC[C@H](N2C(=O)c3ccccc3C2=O)C(=O)N1
    .	-12.5	i	1.9	2.2	-0.3	.
O=C(/C(=C/c1ccccc1)c1ccccc1)N1CCCCC1
    7.4%	.	.	0.7	-1.6	-0.2	.
COc1ccccc1-c1csc(C(NC(C)=O)c2cccc(F)c2)n1 (stereo not given)
    .	-2.2	i	.	1.2	.	.
Cc1c(CC(C)C)nc(N)c(C#N)c1-c1ccccc1
    3.3%	.	.	-0.9	-1.1	5.6	0.715
CSc1ccccc1NS(=O)(=O)c1ccc2c(c1)OCCO2
    24.1%	-16.7	i	1.8	9.5	-2.6	0.691
CCOc1ccc(S(=O)(=O)N/N=C(\C)c2ccc3c(c2)OCO3)cc1
    .	-18.1	i	.	-5.0	-1.5	.
O=C1C=C(c2ccc(-c3ccccc3)cc2)C[C@@H](c2ccc3c(c2)OCO3)C1
    .	-6.6	i	1.9	-3.2	.	.
O=C(Cn1nnc2ccccc21)OCC(=O)c1ccc(Cl)c(Cl)c1
    -13.5%	.	.	-4.6	0.6	-1.2	0.757
O=C1OCC/C1=C\NCCCN/C=C1\CCOC1=O
    .	-1.4	.	.	-1.6	.	.
O=C(CSc1nnc(-c2cccnc2)n1Cc1ccco1)NCc1ccc2c(c1)OCO2
    ?	.	.	5.2	4.9	-4.6	0.724
COc1ccc2nc(SCC(=O)N3CCNC3=O)[nH]c2c1
    2.7%	.	.	3.2	-0.2	-5.1	0.714
O=C1/C(=C/c2ccc(Cl)cc2)NC(=S)N1Cc1cccnc1
    .	-0.7	i	7.6	5.9	?	0.703
COc1cc(/C=C2/SC(=S)N(CCC(=O)Nc3ccc(C(=O)O)cc3)C2=O)cc(OC)c1OC
    1.5%	3.2	i	9.3	1.8	-1.7	0.676
Cc1nc(N2CCN(Cc3nc4ccccc4[nH]3)CC2)c2oc3ccccc3c2n1
    2.7%	.	.	1.9	1.0	7.6	0.716
Nc1nc(NC(=O)/C=C\C(=O)O)nn1-c1ccccc1
    24.6%	-1.0	i	0.1	2.7	-2.5	0.699
CCc1c(-c2ccc(Cl)cc2)ncn1Cc1cccc(-c2ccccc2)c1
    .	-14.1	i	.	4.2	.	.
CCC(C)C(=O)Nn1c(C2CC2)nc2cc(OC)c(OC)cc2c1=O (stereo not given)
    -9.4%	-1.5	i	1.0	-1.0	3.3	0.746
COc1ccc(N2CCN(c3ncccn3)CC2)cc1
    -0.8%	.	.	2.2	2.2	0.9	0.691
CC(Sc1ccc(Cl)cc1)C(=O)Nc1ccccc1-c1ccccc1 (stereo not given)
    -3.1%	.	.	5.9	-1.2	-1.4	0.673
O=C(NCCc1ccccc1)C(=O)NCC1OCCN1S(=O)(=O)c1ccc2c(c1)OCCO2 (stereo not given)
    .	0.5	i	0.1	1.5	?	0.72
COc1ccccc1NS(=O)(=O)c1ccc(Cl)c(NC(=S)NC(=O)C2CCCC2)c1
    ?	.	.	2.6	-3.5	-3.5	0.725
COc1cc(C)c(C(=O)Oc2cc(C)c(C(=O)O)c(O)c2)c(O)c1
    .	-4.0	i	3.1	-0.5	-2.5	0.628
Cc1cc(NC(=O)c2cccc(F)c2)no1
    2.2%	.	.	4.3	-10.0	1.2	0.714
Cc1cc(NC(=O)C2C3C=CC(C3)C2C(=O)O)no1 (stereo not given)
    17.7%	.	.	0.2	0.3	5.6	0.704
O=C(Nc1ccccc1Cl)c1ccccc1
    1.6%	-3.5	i	-0.8	3.6	5.0	0.696
COc1ccc(-n2ncc3c(NCCCn4ccnc4)ncnc32)cc1
    0.2%&-1.9%	.	.	-1.2	-2.1	2.1	0.662
COc1cc2c3nc4n(c(=O)c3n(CC(=O)N3CCCC3)c2cc1OC)CCS4
    .	1.2	i	-1.4	4.1	.	0.68
O=C(Nc1ccccn1)C1CCN(S(=O)(=O)c2ccccc2)CC1
    22.7%	-1.5	i	-0.2	-2.9	.	0.646
Cc1cc(O)cc(C)c1Cl
    .	-3.4	i	4.0	1.5	-9.9	0.699
N#Cc1nc(COc2ccc(Cl)cc2)oc1N1CCCC1
    -1.5%	.	.	4.5	-0.8	4.8	0.71
Cc1ccc(OCC(=O)Nc2cc(S(=O)(=O)N3CCCCC3)ccc2C)c([N+](=O)[O-])n1
    .	.	.	3.1	6.1	7.5	0.722
CCc1ccc(S(=O)(=O)Nc2ccc(O)c3ccccc23)cc1
    .	1.3	i	.	0.2	-1.0	.
O=C(NC1CCCCC1)c1cc2nc3c(c(C(F)(F)F)n2n1)CCCC3
    24.5%	.	.	-8.5	5.0	-0.7	0.778
COc1ccc(S(=O)(=O)Nc2cccc3c2O[C@H](CN(C)CC2CC2)[C@@H](C)CN([C@H](C)CO)C3=O)cc1
    .	-1.8	i	1.8	-4.0	.	0.738
CC(C)NC(=O)COC(=O)c1cc(Br)ccc1Cl
    4.4%	-2.3	i	1.2	-1.1	7.0	0.677
COc1cccc(C(=O)NC2CC3CCC(C2)N3Cc2ccccc2)c1 (stereo not given)
    .	0.4	i	5.2	5.1	5.7	0.708
Cc1ccc(F)c(Oc2cc(NN3CCCCC3)c([N+](=O)[O-])cc2[N+](=O)[O-])c1
    .	1.4	i	1.9	1.5	?	0.741
CCOC(=O)C1CCN(S(=O)(=O)c2ccc3c(c2)N(C(C)=O)CCO3)CC1
    -7.8%	-0.7	i	3.3	2.1	2.5	0.646
CSCCC(NS(=O)(=O)c1ccc2c(c1)oc(=O)n2C)C(=O)NC1CCCc2ccccc21 (stereo not given)
    66.5%	-1.7	i	2.2	2.2	5.0	0.794
O=c1[nH]nc(Cc2ccc(Cl)cc2)c2ccccc12
    ?	.	.	3.7	1.2	-1.9	0.715
CC(=O)c1cc(CN2CCC(C(=O)Nc3cccc(-c4cscn4)c3)CC2)cs1
    4.3%	0.0	i	6.3	5.5	-1.1	0.717
O=C(COC(=O)CNC(=O)c1ccccc1)Nc1ccc(Cl)cn1
    3.8%	-1.8	i	2.0	0.8	.	0.655
Cc1ccc(Cc2c(-c3ccccc3)nc3cc(C)ccn23)cc1
    -4.7%	3.0	i	.	7.6	.	.
CN(CC(=O)Nc1cc(C(F)(F)F)ccc1-n1cncn1)Cc1ccccc1N1CCOCC1
    .	-0.4	i	.	-1.2	.	.
COc1ccc2c3c(cccc13)N(C)N=C2C
    4.23µM*	.	.	-13.4	-71.3	-8.1	0.826
CC(C)(C)NC[C@H](O)COc1nsnc1N1CCOCC1
    0.2%	-2.6&-8.9&-14.7	i	2.0&4.7	1.2&0.0&-1.4	3.5	.
COc1ccccc1OCCNC(=O)c1cc(=O)[nH]c2ccccc12
    -7.8%	-7.2	i	-7.7	-0.8	1.2	0.67
Cc1ccc2[nH]c3c(c2c1)CN(C)CC3
    -1.8%	-0.8	.	2.1	-1.7	-2.2	0.738
CCCCCC(=O)Nc1nnn(CCC)n1
    73.0%	.	.	0.8	-1.3	-2.4	0.657
COc1cc(/C=C/C(=O)O)cc(S(=O)(=O)N2CCCc3ccccc32)c1OC
    20.2%	5.2	i	1.6	1.2	5.4	0.715
Cc1ccc(OCCSc2cc(C)nc(N)n2)cc1
    2.5%	.	.	5.7	-3.6	7.8	0.63
CCCCc1nc(Cl)c(CO)n1Cc1ccc(-c2ccccc2-c2nnn[nH]2)cc1
    .	1.6	i	2.3	0.8	?	0.688
COc1ccc(NC(=O)C2(C)CCN2Cc2ccc3ccccc3c2)cc1OC (stereo not given)
    .	0.2	i	.	0.8	.	.
CC1CCN(S(=O)(=O)c2ccc(NC(=O)c3cccs3)cc2)CC1
    -4.4%	.	.	5.3	-0.5	-1.0	0.675
CCOC(=O)NC1Cc2ccccc2C1Sc1ccccn1 (stereo not given)
    -1.2%	1.2	i	3.0	0.2	1.0	0.666
C=CC[N+]1(CC#CCOC(c2ccccc2)c2ccccc2)CCOCC1
    1.4%	.	.	4.0	-2.6	-1.1	0.742

Following part.
Values run as follows: Vif TR-FRET	AF4-AF9 inh	FGF22 binding	UCH37 DUB inh	HNF4A DNA FP	RanGTP-Impb inh	Ecoli growth
COc1ccc2nc(N=Nc3ccc(N(C)C)cc3)sc2c1
    -7.7%	.	.	5.1	0.8	.	0.797
CCS(=O)(=O)N1CCN(c2ccc([N+](=O)[O-])c(NC(C)c3ccccc3)c2)CC1 (stereo not given)
    -1.6%	.	.	10.6	2.2	3.1	0.795
NC(=O)c1ccccc1NC(=O)CN1CCOCC1
    19.8%	.	.	2.5	3.5	2.2	0.683
COC(=O)COc1cccc2c(=O)n(CC(=O)N3CCCCC3)ccc12
    -8.2%	-7.9	i	-4.0	-1.5	0.6	0.683
CC(C)CCNC(=O)C(Cc1ccccc1)NS(=O)(=O)c1ccc2c(c1)c(=O)n(C)c(=O)n2C (stereo not given)
    -2.5%	-3.2	i	-3.6	0.4	1.8	0.69
CCOC(=O)c1c(C)c(C(=O)Nc2ccc3c(c2)OCCO3)c(C)n1CC
    2.4%	.	.	0.9	2.6	-1.8	0.716
Cc1c(Cl)cnc(NC(=O)COC(=O)/C=C/c2ccco2)c1Cl
    19.7%	-0.6	i	-7.6	0.0	.	0.656
Cc1ccc(-c2nnn(CC(=O)N(CC(=O)NC3CCCC3)c3cccc(F)c3)n2)o1
    .	-0.1	i	2.6	-1.2	-1.7	0.691
Cc1onc(-c2c(F)cccc2Cl)c1C(=O)OCC(=O)Nc1cccc(S(=O)(=O)N(C)C)c1
    .	3.2	i	3.9	0.7	.	0.715
Cc1ccc(OC(=O)CCC(=O)NC(C)c2ccccc2)cc1 (stereo not given)
    5.6%	-0.3	i	-1.4	2.5	2.2	0.666
CCOc1ccc(C(=O)NC(=S)Nc2ccc(N3CCOCC3)c(Cl)c2)cc1[N+](=O)[O-]
    .	-2.1	i	5.2	5.2	-2.3	0.74
